High-throughput results deposited in PubChem by several laboratories.
LANA-H2B inh = blocks KSHV LANA binding to histone H2A/H2B; Q9QR71; cell-free LANA-H2A/H2B peptide, fluorescence polarization; inhibition, % (no concentration beside the values); 320,000 tested, 0.6% active; in the data active means inhibition mostly above about 10%, no sharp cut-off; inactive means mostly below about 6.7%;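 further: stock transfer was 7.5 nL into about 10 µL; 0% = median of vehicle wells and 100% = median of positive control wells; one replicate is shown; the record names a cut of 25% in any replicate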
UCH37 inh = blocks the human deubiquitinase UCH37; Q9Y5K5; purified proteasome/UCH37, Ub-AMC cleavage fluorescence; inhibition, % (concentration not given with the values); 330,000 tested, 0.33% active; AID 588478;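 active means mean of two replicates above 20%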;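 further: 0% = compound-free wells with enzyme and 100% = wells lacking proteasome; stock transfer was 100 nL into about 20 µL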
Target sequence (Q9Y5K5 whole entry, looked up): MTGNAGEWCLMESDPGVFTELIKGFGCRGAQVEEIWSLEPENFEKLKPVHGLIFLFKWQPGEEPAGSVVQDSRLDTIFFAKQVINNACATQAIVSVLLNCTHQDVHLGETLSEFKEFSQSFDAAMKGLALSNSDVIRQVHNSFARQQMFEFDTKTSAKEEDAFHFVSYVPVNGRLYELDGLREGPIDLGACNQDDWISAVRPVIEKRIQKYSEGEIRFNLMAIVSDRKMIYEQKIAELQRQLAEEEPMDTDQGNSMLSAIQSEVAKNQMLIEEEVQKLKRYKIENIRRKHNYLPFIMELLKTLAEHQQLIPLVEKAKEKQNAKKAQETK
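Material: Human UCH37 enzyme supplied as purified proteasome complex | Schedule: 30 min preincubation with enzyme, 25 min cleavage at room temperature | Detection: AMC fluorescence 355/460 nm | Measure: % inhibition of Ub-AMC cleavage fluorescence | Controls: Wells without proteasome as full block, compound-free enzyme plus substrate as uninhibited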
Beta apoptosis = beta cell apoptosis inhibition; INS-1E cytokine-induced death, ATP luminescence, 48 h; percent of positive-control rescue, neutral wells zero; protection from apoptosis, % (concentration not given with the values); 300,000 tested, 0.8% active; AID 435005;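 active means all replicates at 75% or more, or half of them and the mean; inconclusive means half reach 75% but not the mean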;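 further: 0% = cytokine-treated negative control wells and 100% = positive control rescue; higher means more ATP so stronger rescue from cytokine killing; wells of about 40 µL received 100 nL stock; the first replicate is given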
Calb FLC = C. albicans growth modulation with fluconazole; C. albicans CaCi-2 (fluconazole-resistant clinical isolate) + fluconazole, Alamar Blue growth, 48 h; 300,000 tested, 0.57% active; growth inhibition, % (test concentration not listed); AID 1979;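 active means most replicates above 75%; inconclusive means exactly half above 75%; inactive means most below 75%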;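 further: all wells also contain fluconazole at 8 µg/ml as a sub-toxic cotreatment; 0% = median of DMSO wells and 100% = median of geldanamycin control wells; wells of about 8 µL received 7.5 nL stock; the first replicate is given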
B2AR ag = agonists of human beta-2 adrenergic receptor inducing internalization; 340,000 tested, 0.43% active; P07550; response, % (concentration not given with the values); Am2.2-beta2AR cells, FAP receptor internalization, flow cytometry; reference of the scale not given here;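 active means response above a set limit, near 3 SD of response in nonfluorescent compounds, cut at about 42% in these data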;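 further: stock transfer was 100 nL into about 11 µL; a reference agonist was the positive control; negative values mostly stem from fluorescent compounds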
Target sequence (P07550 whole entry, looked up): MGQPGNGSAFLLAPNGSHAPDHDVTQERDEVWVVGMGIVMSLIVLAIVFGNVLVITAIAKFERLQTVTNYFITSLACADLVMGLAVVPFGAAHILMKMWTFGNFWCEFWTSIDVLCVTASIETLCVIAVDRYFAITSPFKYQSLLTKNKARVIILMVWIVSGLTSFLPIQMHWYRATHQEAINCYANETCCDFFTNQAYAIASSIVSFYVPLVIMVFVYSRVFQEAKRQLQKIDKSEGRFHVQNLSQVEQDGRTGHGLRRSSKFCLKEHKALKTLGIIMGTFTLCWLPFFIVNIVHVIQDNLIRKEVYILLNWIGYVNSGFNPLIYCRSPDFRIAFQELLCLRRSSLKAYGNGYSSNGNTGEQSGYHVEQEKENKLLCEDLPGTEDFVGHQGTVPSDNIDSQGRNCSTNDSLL
T cruzi inh = T. cruzi replication inhibition; AID 1885; T. cruzi beta-gal in NIH3T3, luminescence, 90 h; 300,000 tested, 1.4% active; inhibition, % (no concentration beside the values);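 active means mean inhibition across valid replicates above about 55%, limit read from the data; inconclusive means mean below that limit but half or more replicates reach it; inactive means mean below it, under half of replicates reach it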;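 further: signal also drops with host cell toxicity which is not excluded here; 0% = plate median of DMSO wells and 100% = zero luminescence signal; higher percent means less beta-gal luminescence so fewer parasites; stock transfer was 50 nL into about 50 µL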
Bfl-1 A1 inh = inhibitors of the anti-apoptotic protein A1, read as caspase activation; 330,000 tested, 0.066% active; caspase activation, % (no concentration beside the values); AID 2462; MEF A1-2A-BIM cells, Caspase-Glo 3/7 luminescence, 3 h; percent of clofoctol response, vehicle zero;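 active means over half of replicate activation scores above 10%, or exactly half above 10 with the replicate mean above 10; inconclusive means replicate mean below 10 yet half the replicates above 10; inactive means over half of replicates below 10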;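 further: wells of about 30 µL received 50 nL stock; many hits fall short of the cut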
RanGTP-Imp inh = disruptors of Ran-importin-beta complex formation – biochemical, FRET, CFP-Ran, YFP-importin-beta, homogeneous, primary screen; cell-free CFP-Ran/YFP-importin-beta FRET ratio; inhibition, % (test concentration not listed); 300,000 tested, 1.1% active; AID 2216;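 active means most replicates above 15%; inconclusive means exactly half above 15%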;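 further: 0% = DMSO wells and 100% = Ran loaded with GDP instead of GTP; wells of about 40 µL received 100 nL stock; the first replicate is given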
The depositor's hits bear a star; ? = inconclusive; nt = no result given.

SMILES	LANA-H2B inh	UCH37 inh	Beta apoptosis	Calb FLC	B2AR ag	T cruzi inh	Bfl-1 A1 inh	RanGTP-Imp inh
CN1/C(=C\C(=O)COC(=O)c2ccc([N+](=O)[O-])o2)C(C)(C)c2ccccc21	-1.4	-0.7	-4.5	-9.6	5.1	17.0	1.0	1.7
CCCCCCc1ccc(OCC(=O)OC)cc1OCC(=O)OC	-1.4	1.4	-7.8	7.0	17.4	-10.0	-0.4	-0.4
N#CC1=C(N)Oc2n[nH]c(-c3cccs3)c2C1c1cccs1 (stereo not given)	-7.1	5.6	-11.5	-1.9	11.6	-20.6	0.2	-0.7
C=C(C)Cn1c(SCCCO)nc2c1c(=O)[nH]c(=O)n2C	0.7	-1.7	3.0	-3.3	3.5	12.0	1.4	-0.6
Cc1ccc2[nH]c3c(N4CCOCC4)ncnc3c2c1	0.2	-253.7	13.1	13.5	6.8	-0.4	-1.0	-5.4
CC(=O)c1cc(F)c(N2CCOCC2)cc1C	-2.0	0.5	-5.6	1.7	-0.4	-24.2	-0.3	-2.2
COc1cc2c(=O)n(CCC(=O)NCC3CCCO3)c(=O)n(CC(=O)Nc3ccc(C)cc3C)c2cc1OC (stereo not given)	2.4	-14.2	-2.1	9.1	-1.2	-7.0	0.7	-0.7
CSc1ccc(S(=O)(=O)NC2CC2)cc1	0.1	-1.3	nt	5.8	-0.4	-8.8	0.6	-0.7
CCNc1nc(SCC(N)=O)nc2sc3c(c12)CCN(C)C3	nt	-100.0	nt	-2.4	-3.0	-1.8	nt	48.4*
CCCOc1cccc(C(=O)N/N=C/c2coc3ccccc3c2=O)c1	-2.0	nt	-5.3	108.4*	-8.9	nt	1.3	nt
CCCCOc1ccc(C(O)(CCC)CCN2CCOCC2)cc1 (stereo not given)	0.9	3.6	5.8	-4.0	-6.0	-12.9	0.0	1.7
Fc1ccc(-n2nnc(-c3cnc4ccccc4c3)n2)cc1	-1.1	1.2	2.1	0.2	nt	-5.8	-6.1	-3.5
COc1cc(/C=C2/SC(=S)N(c3ccccc3)C2=O)ccc1Oc1nc(N2CCOCC2)nc(N2CCOCC2)n1	-1.2	2.0	4.1	-8.6	10.2	-12.2	0.1	3.2
O=C(C1COc2ccccc2O1)N1CCN(Cc2ccc(Br)cc2F)CC1 (stereo not given)	4.9	6.7	2.5	-5.4	10.4	22.4	1.7	-2.3
CCOC(=O)c1ccc(NC(=O)CCC2COc3ccccc3O2)cc1 (stereo not given)	-4.0	0.4	-1.4	10.7	-10.1	-11.4	-1.2	0.8
O=C(NN=C(Cc1ccccc1)Cc1ccccc1)C1CC1	-1.1	0.3	-1.0	12.9	8.7	-16.0	1.3	34.3*
Cc1nnc(N/N=C/c2ccc(-c3ccccc3F)o2)n1N	1.5	nt	0.2	23.3	9.4	0.8	0.3	?
COc1ccc2c(c1)[nH]c1c(=O)n(Cc3ccncc3)cnc12	6.6	4.6	-1.0	-3.7	4.5	-3.6	-0.2	-6.1
OCC1CCCN(Cc2cn(Cc3ccccc3)nc2-c2cc3ccccc3o2)C1 (stereo not given)	-4.2	0.4	-2.9	-3.1	1.1	-1.8	0.1	4.8
CCN(C(=O)COC(=O)/C=C/c1nc2ccccc2s1)C1CCS(=O)(=O)C1 (stereo not given)	0.2	-4.4	-3.8	-8.0	-1.7	-23.9	-0.9	-1.7
CC(C)C(=O)NN(C(=O)c1ccccc1)c1ccccc1	-2.1	3.3	1.1	8.4	-4.0	1.3	-0.2	-2.2
O=C(CN(C(=O)c1csnn1)c1cccc2ccccc12)NCc1ccc(F)cc1	20.2*	4.0	2.1	12.3	-3.0	5.9	-0.7	2.9
Cn1c(=O)c([N+](=O)[O-])c(N2CCN(Cc3ccc4c(c3)OCO4)CC2)c2ccccc21	-0.5	1.0	-1.1	17.6	9.4	32.3	-0.2	2.7
N#CC1=C(N)OC2=C(C(=O)CC(c3ccccc3)C2)C1c1cccnc1 (stereo not given)	2.5	2.7	-6.3	-7.4	2.6	54.8*	0.1	9.0
N#CCCN/N=C(\Cc1nc2ccccc2[nH]1)c1ccccc1	4.6	nt	-5.2	3.6	4.6	-2.1	-0.2	4.6
Cc1cccc(NC(=O)C2C3C=CC(C4CC34)C2C(=O)O)c1 (stereo not given)	-4.7	2.0	-0.6	-7.2	-2.9	-6.7	-0.5	1.1
CN(CC(=O)Nc1cccc(S(=O)(=O)N2CCCC2)c1)Cc1ccccc1	-2.6	-0.2	0.7	nt	-1.6	nt	0.2	nt
Cc1ccc(NCC(=O)c2ccccc2)cc1Cl	-1.2	3.8	-3.5	-2.7	12.8	-14.3	-1.1	2.9
COc1ccc(N(C(=O)Cc2cccs2)C(C(=O)NC2CCCC2)c2ccncc2)cc1OC (stereo not given)	-3.3	-0.1	-0.5	-0.5	-7.4	3.1	0.2	3.9
CSCC[C@H](NC(=O)OC(C)(C)C)C(=O)N1CCC(C(=O)N[C@@H](Cc2c[nH]c3ccccc23)C(=O)O)CC1	2.2	0.6	-4.8	0.4	-10.1	-7.7	0.5	-3.8
CCC(Sc1ncccc1C(=O)O)C(=O)N1CCCC1 (stereo not given)	3.3	1.5	-6.5	30.5	13.3	-18.0	0.2	?
CCn1c(C)[n+](CC)c2ccc(S(=O)(=O)NC)cc21	-0.3	0.0	2.3	3.9	-0.2	2.0	0.1	-0.9
CCn1ccc(C(=O)NC2=NCCS2)n1	nt	2.1	-16.2	-1.0	-9.3	-16.9	-0.9	5.3
CC(C)N(C)Cc1nnnn1CC(=O)NCCc1cccc(C(F)(F)F)c1	-1.7	1.3	-4.9	1.7	-2.3	-10.6	0.4	2.2
C=CCNC(=O)COC(=O)C1CCN(S(=O)(=O)c2ccc3c(c2)OCCO3)CC1	6.0	2.7	-7.4	-4.2	8.7	-4.6	0.7	?
Cc1cccc2cc(CN(Cc3ccc4c(c3)OCO4)Cc3nnnn3C3CCCC3)c(=O)[nH]c12	-0.8	1.6	6.1	7.4	-4.6	30.8	-0.8	-1.1
Cc1nn(-c2ccccc2)c(Cl)c1C(=O)NCc1cccs1	-1.8	4.2	-9.6	9.4	1.9	10.7	1.1	2.7
OC1CCCN(Cc2cn(Cc3ccccc3)nc2-c2cc3ccccc3o2)C1 (stereo not given)	-2.9	1.2	-5.3	-4.5	4.5	22.7	-0.2	3.2
Nc1nonc1-n1nnc(C(=O)N/N=C/c2ccc3c(c2)OCO3)c1-c1ccccc1	1.8	nt	-16.7	10.8	10.2	-9.8	0.2	0.4
O=C(CSc1ccc(-c2ccccn2)nn1)NCc1ccccc1	2.4	4.6	2.5	-6.2	-7.0	-13.7	0.1	5.7
c1ccc(-c2cncnc2)nc1	3.2	1.7	-1.1	nt	-8.2	nt	-0.7	nt
CC(O)C(C(=O)OCc1ccc([N+](=O)[O-])cc1)N1C(=O)c2ccccc2C1=O (stereo not given)	5.4	-0.7	-2.2	nt	-5.6	nt	0.1	nt
OC(CNC1CCCC1)COc1ccc(F)cc1 (stereo not given)	-3.3	1.5	-5.7	3.1	-14.1	-2.5	-1.4	-2.1
CCC(C)NC(=O)Nc1ccc(F)c(Cl)c1 (stereo not given)	-2.4	4.3	-5.7	-7.3	0.6	-12.0	-0.9	-4.7
O=C(CSc1nccn1-c1ccccc1)c1ccc(Cl)cc1	3.3	nt	-5.2	4.3	4.2	19.8	0.5	0.0
Cc1oc(-c2ccccc2Cl)nc1CS(=O)CC(=O)NCCCN1CC(C)CC(C)C1 (stereo not given)	5.7	nt	-7.5	7.8	-1.3	12.7	-0.3	-1.9
O=[N+]([O-])c1cccc(/C=N/N2CCN(Cc3ccccc3)CC2)c1	0.3	nt	2.8	-1.9	3.5	3.5	1.1	0.2
CCN(CCCNC(=O)C1CCN(S(=O)(=O)CC)CC1)c1cccc(C)c1	-2.7	4.9	0.4	22.4	2.8	5.2	-1.1	-3.3
CCc1ccc(NC(=O)N(CCCOC(C)C)C2CCN(C(C)=O)CC2)cc1	-1.7	1.3	-5.9	-1.2	9.4	15.0	-0.6	3.1
Cc1[nH]c2c(ccc3cccnc32)c1C	-4.0	3.0	3.9	-4.5	0.6	-19.0	-1.2	-1.6
COc1cc(/C=C2/C(=O)ON=C2C)cc(Cl)c1O	-7.3	nt	-4.3	2.9	-10.3	-14.7	-0.5	-3.7
Cc1ccc(/C=N/n2c(-c3cccnc3)n[nH]c2=S)s1	3.5	nt	3.4	-3.4	-8.1	10.4	0.7	4.5
COc1cccc(C(=O)Nc2ccc3ccccc3c2)c1	-3.6	-1.0	11.6	-8.8	-5.9	-17.5	-6.8	0.1
Cn1c(=O)c(/C=C/c2ccccc2)nc2ccccc21	-2.6	-171.5	nt	-19.6	-23.0	3.6	-1.7	52.9*
Oc1c(C(c2ccccc2)N2CCc3ccccc3C2)sc2ncnn12 (stereo not given)	1.2	1.8	-5.3	-5.3	3.0	-2.2	1.0	1.4
Cc1ccc(NC2CCCN(C(=O)CN3C(=O)c4ccccc4C3=O)C2)cc1C (stereo not given)	0.6	2.9	-4.6	7.6	-7.8	-2.8	0.7	2.2
COC(c1ccccc1)c1nnc(CCC(=O)NCCC(C)C)o1 (stereo not given)	3.7	1.8	-0.9	-14.9	11.7	0.3	0.5	?
COc1ccccc1N1CCN(CC(=O)NC(=O)NCc2ccco2)CC1	-1.5	2.7	-6.5	-28.6	0.2	-1.8	0.2	-2.0
COC(=O)NC1(C(F)(F)F)NC(=O)N(C2CCCCC2)C1=O (stereo not given)	-3.5	-1.7	-6.2	-3.4	1.4	-7.6	-1.2	-0.9
COCCCNC(=O)c1c(NC(=O)c2cccs2)sc2c1CCCC2	-3.2	-100.1	12.3	-3.5	1.5	25.3	-0.6	-4.0

Additional structures.
SMILES	LANA-H2B inh	UCH37 inh	Beta apoptosis	Calb FLC	B2AR ag	T cruzi inh	Bfl-1 A1 inh	RanGTP-Imp inh
COC(=O)c1cc(NC(=O)Cc2cccs2)cc(C(=O)OC)c1	-0.7	3.5	-9.9	-0.5	-5.1	-1.5	1.9	-4.2
CC(NC(=O)Cc1cccc(C(F)(F)F)c1)c1ccc(F)cc1 (stereo not given)	-3.1	0.9	-5.7	5.2	-3.9	-12.6	1.0	1.5
Cc1ccc(-c2ocnc2C(=O)Nc2ccccc2C(=O)N2CCCC2)cc1	-2.9	-0.7	3.3	-5.6	3.0	-12.5	-0.8	4.6
Cn1nc2c(c1C(=O)O)CCCC2	-2.5	3.6	-0.5	-5.8	3.1	-2.3	-0.7	4.3
COc1ccc(S(=O)(=O)NCCc2csc(-c3cccnc3)n2)cc1	1.9	2.4	2.7	-3.1	-7.8	-9.5	0.4	2.4
O=C(CCCn1cnc([N+](=O)[O-])n1)Nc1cccc2ccccc12	-1.1	0.2	-4.9	2.3	-1.4	48.5	0.3	4.8
Cc1ccc2nc(-c3ccc(NC(=S)NC(=O)C(C)C)cc3)sc2c1	-5.4	-12.1	4.1	-5.7	8.3	45.5	0.0	9.4
